CDC25B CDK2 inh: primary biochemical HTRF screen for blockers of M-phase inducer phosphatase 2 binding to CDK2/cyclin A | P30305+P24941 | HTRF CDC25B-CDK2/CyclinA binding, anti-His/anti-Flag; active compounds read high | z-score (no concentration beside the values) | actives 0.72% (n = 94,000);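 note: score is relative to mean and SD of negative controls; strong numbers were not always called active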
HIV TAR-Tat: TAR RNA-Tat peptide displacers, HIV-1, primary screen, biochemical, FRET, FAM/TAMRA-labeled Tat. HIV-1 TAR RNA, Tat peptide displacement FRET; active compounds read high. z-score (no concentration beside the values). actives 0.6% (n = 100,000). AID 1259389, 2018;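 note: score is relative to mean and SD of negative controls; some compounds called inactive have numbers as strong as hits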
The depositor's hits bear a star; nt = not tested or not shown.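 Rule for the calls: active = z-score from 3 up in half or more of its runs; inactive = the rest.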

SMILES | CDC25B CDK2 inh | HIV TAR-Tat
Cc1ccccc1-c1noc(C(C)NS(=O)(=O)c2ccc(Br)cc2)n1 (configuration not stated) | 0.41 | 0.09
CC1(C)CC(=O)C2=C(C1)c1c(ccc3ccccc13)NC2c1ccco1 (configuration not stated) | -0.15 | 1.8
Cn1c(=O)n(CC(=O)N2CCCC2)c(=O)c2cc(S(=O)(=O)NCc3cccs3)ccc21 | nt | 1.4
COc1ccc(-c2csc(Nc3cccnc3)n2)cc1 | -2.1 | 2.1
Cn1cc(Cl)c(/C=C(\C#N)S(=O)(=O)C(C)(C)C)n1 | -0.84 | nt
O=S1(=O)C[C@H](NCc2cccnc2)[C@@H](S(=O)(=O)c2ccc(Cl)cc2)C1 | -0.75 | -0.38
Cc1ccc(N2C(=O)c3oc4ccccc4c(=O)c3C2c2ccc(Cl)cc2)nc1 (configuration not stated) | -1.3 | 1.1
CC(NC(=O)c1cc(-c2cccnc2)nc2ccccc12)c1ccc2c(c1)OCCO2 (configuration not stated) | nt | -0.15
O=C(CC1(O)C(=O)Nc2ccc(Cl)cc21)c1ccccc1 (configuration not stated) | -1.1 | -0.16
CC1=C(C(=O)OCCc2ccccc2)C(c2cccnc2)C2=C(CCCC2=O)N1 (configuration not stated) | -1.9 | 0.72
COc1ccc(CNc2ncc(-c3ccc(Br)cc3)n2C)cc1OC | 1.4 | -0.56
Cc1ccc(-n2ncc3c(N4CCC(C)CC4)ncnc32)cc1C | nt | 2
COc1ccc(C(C)=O)cc1CO/N=C1\CSCc2ccccc21 | 11 | nt
OCCN(CCO)c1ncnc2c1sc1nc(N3CCOCC3)c3c(c12)CCCC3 | 1.3 | 1.3
CCN1CCCC1CNC(=O)c1cnn2c3c(cnc12)CCCC3 (configuration not stated) | nt | -0.61
COc1ccc(NC2c3ncccc3C(=O)N2Cc2ccco2)cc1 (configuration not stated) | nt | 0.13
Cc1cc(NC(=O)C2CCN(c3ncnc4c3nc3n4CCCCC3)CC2)no1 | nt | 0.28
Cc1c(CCNS(=O)(=O)c2ccc(F)cc2)sc2nc(-c3ccc(Cl)cc3)nn12 | nt | 0.43
COc1ccc(C(CC(=O)c2ccco2)SCc2ccco2)cc1OC (configuration not stated) | -1.2 | 0.12
Cc1ccc(-n2cc(-c3ccccc3)c3c(N4CC(C)OC(C)C4)ncnc32)cc1 (configuration not stated) | -1.4 | nt

Reformatted field by field: part of the list above
CC(NC(=O)c1cc(-c2cccnc2)nc2ccccc12)c1ccc2c(c1)OCCO2 (configuration not stated)
  CDC25B CDK2 inh: nt
  HIV TAR-Tat: -0.15

O=C(CC1(O)C(=O)Nc2ccc(Cl)cc21)c1ccccc1 (configuration not stated)
  CDC25B CDK2 inh: -1.1
  HIV TAR-Tat: -0.16

(cont.)
SMILES | CDC25B CDK2 inh | HIV TAR-Tat
O=c1sc2ccccc2n1Cc1nnc(SCc2ccccn2)n1-c1ccccc1 | -0.61 | nt
O=S(=O)(c1ccc(N2CCOCC2)nc1)N1CCN(c2c(Cl)cncc2Cl)CC1 | -1.4 | nt
O=C1CCSc2ccc(S(=O)(=O)N3CCN(c4ccccn4)CC3)cc2N1 | nt | 1
CC1CC(C)CN(S(=O)(=O)c2ccc3c(c2)N(CC(=O)O)C(=O)CO3)C1 (configuration not stated) | nt | 1.5
COc1cc(OC)c2c(c1Cl)OC1(C2=O)C(O)=CC(=O)CC1C (configuration not stated) | nt | 3
CCSC1(SCC)N=C(N)C2(C#N)C(c3ccccc3Br)C12C#N (configuration not stated) | -0.66 | nt
N/C(=N\O)c1ccc([N+](=O)[O-])cc1 | -0.99 | nt
O=C(Nc1ccccc1C(=O)Nc1cccnc1)c1ccccc1 | -1.4 | nt
COc1ccc(CNc2sc(S(C)(=O)=O)nc2S(=O)(=O)c2ccc(C)cc2)cc1 | -1.6 | -0.36
Cc1ccc(-c2nsc(NC(=O)c3cc(=O)c4cc(Br)ccc4o3)n2)s1 | -1.8 | -0.95
Cc1ccc(C)c(NC(=O)Nc2c[nH]c(=O)[nH]c2=O)c1 | nt | 1.4
Oc1ccccc1-c1nc(/C=C/c2ccc(Cl)cc2)no1 | -0.97 | -0.96
O=C(NCCCN1CCCCC1)C1CCCN(c2nc3cccnc3s2)C1 (configuration not stated) | nt | -1.6
COCc1nc2cccnc2n1C1CCNCC1 | nt | 1.4
c1ccc2c(c1)CCN2Cc1csc2c1CCCC2 | nt | -3.4
CCOC(=O)C1CCN(S(=O)(=O)c2ccc(-c3ccon3)s2)CC1 | 0.66 | nt
CC1(C)NC(=O)N(CNc2ccc(F)cc2)C1=O | 0.69 | nt
O=C1CCSc2c1cccc2C(=O)NC1CCCC1 | nt | 1.4
Cc1c(CO)cnn1-c1ccc(F)cc1 | -1.5 | nt
CCn1c(SCC(=O)Nc2nc3ccccc3s2)nnc1-c1cc2ccccc2o1 | nt | 1.9

Record cards, from the list above. Order of values: CDC25B CDK2 inh, HIV TAR-Tat
Listed for COc1cc(OC)c2c(c1Cl)OC1(C2=O)C(O)=CC(=O)CC1C (configuration not stated) = nt, 3
Listed for c1ccc2c(c1)CCN2Cc1csc2c1CCCC2 = nt, -3.4
Listed for CCSC1(SCC)N=C(N)C2(C#N)C(c3ccccc3Br)C12C#N (configuration not stated) = -0.66, nt

The results go on.
SMILES | CDC25B CDK2 inh | HIV TAR-Tat
Cc1ccc2cc(CN(C)S(C)(=O)=O)c(=O)[nH]c2c1 | -0.22 | 0.32
Clc1ccc(-c2nc(-c3ccncc3)no2)cc1 | -1.2 | 1.1
CCCCCc1c(C)nc(N2CCN(Cc3ccc4c(c3)OCO4)CC2)[nH]c1=O | -0.99 | -1.3
Cc1cccn2c(=O)c(C(=O)N3CCN(c4ccc(Cl)cc4)CC3)cnc12 | nt | 0.61
O=c1c(Cc2ccc([N+](=O)[O-])cc2)c(-c2ccccc2)sc2ccccc12 | 1.4 | nt
COc1ccc(S(=O)(=O)[C@H]2CS(=O)(=O)C[C@@H]2N2CCN(Cc3ccccc3)CC2)cc1 | -1.4 | -0.54
COc1cc(-c2ccc(OCC(=O)c3ccccc3)cc2)cc(=O)c2c(C)oc(C)c12 | -1.4 | 1.7
CCOC(=O)Cc1c[nH]c2ccccc12 | nt | 1.5
CCC(C)NC(=O)c1oc2ccc3c(c2c1C)C(=O)CC1(CCCC1)O3 (configuration not stated) | -1.1 | 1.1
O=C(NCc1ccccn1)C(=O)c1c[nH]c2ccccc12 | -0.57 | 0.64
COc1c([N+](=O)[O-])c(=O)oc2ccccc12 | 0.29 | nt
CCCN1CCN(c2nc(Nc3ccccc3)c3cnn(C)c3n2)CC1 | nt | 0.95
CC1CN(C(=O)N2CCC(C(=O)NCCC3=CCCCC3)CC2)c2ccccc2O1 (configuration not stated) | nt | 0.92
CCCOC(=O)C1=C(C)NC2=C(C(=O)CCC2)C1c1ccc(N(C)C)cc1 (configuration not stated) | -0.67 | 1.2
CCn1c(=O)sc2cc(NC(=O)c3cccs3)ccc21 | -1.1 | 0.54
CCOC(=O)c1oc2ccccc2c1C | 2.5 | 0.84
O=C(CN1N=NC2C(=O)N(c3ccc(Br)cc3)C(=O)C21)Nc1ccc2c(c1)OCO2 (configuration not stated) | nt | -0.69
O=C(Cn1c(=O)oc2cc(S(=O)(=O)N3CCCCC3)ccc21)N1CCCCC1 | -0.03 | -0.45
CCN1CCCC1CNC(=O)C1=C(C)C(=O)OC12CCN(S(=O)(=O)c1cccs1)CC2 (configuration not stated) | nt | 0.31
CN(C)CCNC(=O)c1nn(C)c2c1CS(=O)(=O)c1ccccc1-2 | 0.29 | 1.3

Carrying on:
SMILES | CDC25B CDK2 inh | HIV TAR-Tat
CCCCCCCSc1nnc(-c2ccccc2N)c(=O)[nH]1 | -0.84 | -2
CCN1CCN(CCNC(=O)C2CCN(c3nnc(-n4c(C)ccc4C)s3)CC2)CC1 | -0.82 | 3.1
COc1cc(C2SCCS2)cc([N+](=O)[O-])c1OS(=O)(=O)c1cc(Cl)ccc1Cl | -2.1 | nt
Cc1ccc(C(=O)NCCN2CCCC2)cc1NC(=O)C1=CSCCO1 | nt | 1.6
Cc1c(C(=O)CC#N)sc2ccc(Cl)cc12 | -0.26 | nt
CCOc1ccc(/C=C2\N=C(c3ccc(Cl)c([N+](=O)[O-])c3)OC2=O)cc1OC | -2 | nt
Cc1ccc(-c2noc(-c3nnn(-c4ccc(F)cc4F)c3N)n2)cc1 | nt | 0.1
Cc1ccc(S(=O)(=O)CC2CSc3nnc(C)c(=O)n32)cc1 (configuration not stated) | -1 | 1.6
CCOc1ccc(-c2nc(-c3ccc(-c4ccc(OC)cc4)nc3OC)no2)cc1 | 0.04 | -2.4
O=C1CC(c2cccc(F)c2F)c2c(nc(SCc3ccccc3F)[nH]c2=O)N1 (configuration not stated) | -1.9 | 0.27
Cc1ccnc(N2CCC(C(=O)O)CC2)n1 | -0.61 | 0.93
Cc1nc([N+](=O)[O-])c(N2CCN(C)CC2)n1Cc1ccccc1 | -0.54 | 0.95
NC(=O)c1nc(-c2c(F)cccc2Cl)nc2c1[nH]c(=O)n2CC1CCCO1 (configuration not stated) | nt | 1.4
COc1ccc(OC2CCN(S(=O)(=O)c3cccc(F)c3)CC2)cc1 | 0.33 | 0.26
O=C(CSc1nc2ccccc2o1)N1CCN(S(=O)(=O)c2ccccc2)C1 | -2.2 | -0.77
CC(C)CSc1nc2c(c(=O)[nH]c(=O)n2C)n1CC(O)COc1ccc(Cl)cc1 (configuration not stated) | -0.83 | nt
CCC(C)(C(=O)NC1CCCC1)N(C(=O)CC1NC(=O)NC1=O)c1ccc(C)cc1 (configuration not stated) | -0.8 | nt
CCOC(=O)CCc1c(C)nn(-c2ccc(N3CCCC3)nn2)c1C | -1.4 | 0.79
CCC(C)NC(=O)CCCn1c2ccccc2c2cn[nH]c(=O)c21 (configuration not stated) | -0.04 | -0.76
Cc1nn(CC(=O)N2CCN(C3CCCCC3)CC2)c(=O)c2cc3sccc3n12 | -1.9 | nt

(further entries)
SMILES | CDC25B CDK2 inh | HIV TAR-Tat
Cc1ccc(OCCn2cnc3c(N)ncnc32)cc1 | -0.85 | nt
CCc1noc2ncnc(N3CCCC(C(=O)NCCc4cccs4)C3)c12 (configuration not stated) | nt | 0.3
CCCN(CCC)C(=O)Cn1nnc2sc3c(c2c1=O)CCC(C)C3 (configuration not stated) | -2.8 | 2.1
COc1ccc(OC)c(C2CC(=O)C3=C(C2)NC(=O)CC3c2c(F)cccc2Cl)c1 (configuration not stated) | -0.92 | 3.8
Cc1cc(C)cc(NC(=O)CCc2nc(CSc3nc4cc(C)ccc4o3)no2)c1 | nt | -0.09
Cc1cccc(N(C)c2nc3ccc(C)cc3n3cnnc23)c1 | -1 | -0.26
CS(=O)(=O)N1CCc2ccccc2C1 | -2.4 | nt
Cc1ccc2c(c1)NC(c1cccs1)=NC(c1cccs1)=N2 | 0.23 | -1.3
COCCCN1C(=O)c2cc3sccc3n2CC1(C)C(=O)NC1CCCCC1C (configuration not stated) | -1.5 | 1.5
COc1ccc(F)cc1S(=O)(=O)Nc1cc(N2CCCS2(=O)=O)ccc1C | nt | 0.64
CC1Cc2cc(S(=O)(=O)N3CCCC(C(=O)N(C)C4CCCCC4)C3)ccc2N1C(=O)C1CC1 (configuration not stated) | nt | 0.62
CCCN1CCN(C(=O)C2CCN(c3ncnc4c3nc3n4CCCCC3)CC2)CC1 | nt | 1
COCCn1c(CN2CCN(CCO)CC2)nc2c1c(=O)n(C)c(=O)n2C | -2.6 | nt
COc1ccc2ncc(OC(C)=O)cc2c1 | -0.96 | 1.9
Cc1ccc(C2/C(=C(\O)c3ccc(Cl)cc3)C(=O)C(=O)N2CCC(=O)O)cc1 (configuration not stated) | -0.37 | nt
CCN(CC)c1cc2c(cc1F)c(=O)c(S(=O)(=O)c1cccc(Cl)c1)cn2CC | nt | 0.77
OC(CNCc1csc2ccccc12)c1ccccc1 (configuration not stated) | -2.7 | nt
Cc1cc(C)c(S(=O)(=O)NCCc2sc(-c3ccccc3)nc2C)c(C)c1 | nt | 2.2
COC(=O)c1c(C)oc2cc(Br)c(OC(=O)C(C)(C)C)cc12 | -2.5 | 0.36
O=[N+]([O-])c1cccc(S(=O)(=O)c2ccc(NCCOCCO)c([N+](=O)[O-])c2)c1 | -0.87 | nt

Further entries follow:
SMILES | CDC25B CDK2 inh | HIV TAR-Tat
CCn1cc(C(=O)OC)c(=O)c2ccc(C)nc21 | nt | 1.8
Nc1nc(NCc2c(Cl)cccc2Oc2ccccc2)n[nH]1 | -1.5 | nt
COc1ccc(-c2cc(C(F)(F)F)n3nc(-c4ccco4)cc3n2)cc1OC | -1.4 | nt
COc1ccc(OC)c(C2CCN(S(=O)(=O)c3cc(-c4cnc(C)o4)ccc3OC)C2)c1 (configuration not stated) | nt | 4.7
CCOc1cc(C)c(S(=O)(=O)Nc2ccc(Cl)cn2)cc1C | -0.24 | -0.78
O=C(Nc1nccs1)c1ccncc1 | -1.7 | nt

2 compounds picked at random from those above, as already listed:
SMILES | CDC25B CDK2 inh | HIV TAR-Tat
COc1ccc(OC)c(C2CCN(S(=O)(=O)c3cc(-c4cnc(C)o4)ccc3OC)C2)c1 (configuration not stated) | nt | 4.7
COc1ccc(-c2cc(C(F)(F)F)n3nc(-c4ccco4)cc3n2)cc1OC | -1.4 | nt
